FGF22 binding: binders of human FGF22 protein, primary screen, FGF22 synaptogenesis inhibitor project, biophysical, thermal shift, single point; AID 651658, 2012; Fibroblast growth factor 22 (Homo sapiens), Q9HCT0; recombinant FGF22 thermal shift, SYPRO orange fluorescence; percent of sucrose octasulfate shift, DMSO zero; calls only at 9.99 µM; 340,000 tested, 1.5% active;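 active = melting point raised past a set limit in the mean and every replicate; inconclusive = no clear call; three in four hits are not shown here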
Target sequence (Q9HCT0 whole entry, looked up): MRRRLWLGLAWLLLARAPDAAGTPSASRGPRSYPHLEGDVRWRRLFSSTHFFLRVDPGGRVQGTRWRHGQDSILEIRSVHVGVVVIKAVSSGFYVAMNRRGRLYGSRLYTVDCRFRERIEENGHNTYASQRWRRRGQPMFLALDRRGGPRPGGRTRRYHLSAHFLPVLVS
MLL AF4-AF9 inh: inhibitors of AF4 peptide binding to AF9, primary screen, biochemical, AlphaScreen, biotin-AF4 peptide, FLAG-AF9, single point; AID 651704, 2012; inhibition, % at 10 µM; 350,000 tested, 0.47% active;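 active = every replicate reaching a set inhibition limit, whatever the replicate mean, cut at about 25% in these data; inconclusive = mean inhibition reaches that limit but some replicates miss it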;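 note: 0% = plate neutral control median and 100% = total signal loss; the record names both 10 and 1 µM as test concentration; the first replicate is given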
ALR H2O2 inh: inhibitors of human ALR sulfhydryl oxidase, primary screen, biochemical, H2O2 detection, HRP-luminol luminescence, single point; FAD-linked sulfhydryl oxidase ALR (Homo sapiens), P55789; purified ALR, DTT oxidation; inhibition, % (concentration not given with the values); 290,000 tested, 3.8% active;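 active = mean and each replicate at 75% or more; inconclusive = only one of the two met; inactive = neither met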;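 note: stock transfer was 7.5 nL into about 7.5 µL; 0% = neutral wells and 100% = wells with inactivated enzyme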
Target sequence (P55789 whole entry, looked up): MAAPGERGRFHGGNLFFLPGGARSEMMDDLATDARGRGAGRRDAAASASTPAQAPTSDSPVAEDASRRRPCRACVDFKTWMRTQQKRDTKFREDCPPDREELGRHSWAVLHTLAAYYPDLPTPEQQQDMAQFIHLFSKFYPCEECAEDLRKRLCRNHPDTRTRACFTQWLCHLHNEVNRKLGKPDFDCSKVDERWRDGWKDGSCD
Ecoli rRNA inh: reduced GFP signal of wild-type E. coli, primary screen, bacterial rRNA inhibitor project, GFP/RFP fluorescence, OD600, single point; E. coli WT GFP vs humanized-ribosome RFP mutants, 24 h; active compounds read low; DMSO median 0, no signal -100; GFP signal change (wild-type ribosome), % (no concentration beside the values); 350,000 tested, 1.6% active; AID 720706, 2013;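 active = significant combined selectivity score with lowered wild-type GFP, culture density cut under 30%, mutant RFP and density less affected; inactive = any of these conditions unmet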; note: one replicate is shown; some compounds called inactive have numbers as strong as hits
HNF4A DNA FP: change in binding of human HNF4A to DNA, primary screen, biochemical, fluorescence polarization, FITC-DNA; Hepatocyte nuclear factor 4-alpha (Homo sapiens), P41235; 1 h; activity change, % at 10 µM; 360,000 tested, 0.3% active; in the data active = activity change above about 30%, passing the limit was not always enough;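 note: controls were the assay level and a saturating level of protein; the project sought stronger binding though the title names inhibitors; some compounds called inactive have numbers as strong as hits; positive values seem to mean higher polarization but the record does not say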
Target sequence (P41235 whole entry, looked up): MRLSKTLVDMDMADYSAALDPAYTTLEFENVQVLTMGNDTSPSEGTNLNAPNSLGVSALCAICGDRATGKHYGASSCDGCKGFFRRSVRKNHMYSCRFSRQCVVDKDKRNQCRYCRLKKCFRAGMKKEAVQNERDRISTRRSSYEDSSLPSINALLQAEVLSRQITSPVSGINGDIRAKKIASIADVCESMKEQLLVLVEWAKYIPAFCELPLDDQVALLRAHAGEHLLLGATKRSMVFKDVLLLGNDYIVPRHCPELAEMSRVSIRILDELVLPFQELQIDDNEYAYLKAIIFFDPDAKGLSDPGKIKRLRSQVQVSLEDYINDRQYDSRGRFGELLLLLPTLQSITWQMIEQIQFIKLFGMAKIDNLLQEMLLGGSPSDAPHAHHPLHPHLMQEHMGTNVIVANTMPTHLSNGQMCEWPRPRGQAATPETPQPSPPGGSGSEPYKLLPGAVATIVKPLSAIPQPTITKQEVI
Vif A3G: inhibitors of Vif binding to APOBEC3G peptide, primary screen, biochemical, TR-FRET, GST-Vif 1-94, biotin-A3G peptide, dose response retest (AID 1117319); Virion infectivity factor (Human immunodeficiency virus type 1 group M subtype B (isolate …; TR-FRET GST-Vif / biotin-A3G peptide binding; higher % means a stronger effect; test concentration not given here; strong numbers were not always called active; one-dose inhibition, %; IC50 in µM for titrated hits; 260,000 tested, 0.57% active;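 active = above the screen mean plus three standard deviations and confirmed in dose response; inconclusive = results disagree or hit not tested in dose response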;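 note: Vif residues 1-94 fused to GST binding biotinylated APOBEC3G peptide 110-148; 0% = full assay without inhibitor and 100% = GST in place of GST-Vif; retest series ran down from 100 µM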
E coli growth: E. coli growth inhibition, primary screen, OD600. Escherichia coli growth, 23 h; active compounds read low. OD600 absorbance (test concentration not listed). 330,000 tested, 0.21% active;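 active = OD600 absorbance below the run mean of sample wells minus 3.6 SD, in any replicate, cut at about 0.56 in these data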;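 note: stock transfer was 300 nL into about 60 µL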
Ecoli rRNA inh OD600: also measured in Ecoli rRNA inh; calls as there; OD600 change, %; measured here: OD600 growth;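 optical density of the mix in the first replicate; 0 = DMSO median and -100 = no signal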
Ecoli rRNA inh RFP: second read-out of Ecoli rRNA inh, no call of its own (marks repeat the call); RFP signal change, %; measured here: RFP humanized mutant strains;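 first replicate; 0 = DMSO median and -100 = no signal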
* = called active by the depositor; i = inactive; ? = inconclusive; . = no result given; & = joins results of further samples. Only part of the results is shown, so the mix of outcomes need not match the whole.

Structure	FGF22 binding	MLL AF4-AF9 inh	ALR H2O2 inh	Ecoli rRNA inh	Ecoli rRNA inh OD600	Ecoli rRNA inh RFP	HNF4A DNA FP	Vif A3G	E coli growth
CCC1CCCCN1C(=O)COC(=O)CN(C)S(=O)(=O)c1ccc(NC(C)=O)cc1 (stereo not drawn)	i	-1.0	-0.1	6.2	9.2	-1.4	1.9	-6.3%	0.647
CCN(CC)CC#CC(OC)(c1ccccc1)c1ccccc1	i	13.8	-6.0	-52.5	-73.3	-18.5	0.7	9.0%	0.641
CCOC(=O)c1cc(C(C)=O)c(=O)n(C)c1N	.	.	-20.3	.	.	.	2.5	28.9%	0.665
C[C@H](CO)N1C[C@H](C)[C@@H](CN(C)C(=O)Nc2ccc3c(c2)OCO3)Oc2ccc(NC(=O)Cc3cn(C)c4ccccc34)cc2C1=O	i	2.8	.	-5.3	-5.1	-2.5	.	.	.
CCCCOc1ccc(C(=O)NCC(=O)NCCCn2nc(C)cc2C)cc1	i	-5.3	-0.1	.	.	.	0.1	2.0%	0.659
Cc1nc(N2CCOCC2)c2c(C)c(C(=O)Nc3ccc(F)cc3F)sc2n1	i	-18.5	2.4	-3.4	-6.6	-6.0	-2.4	-1.8%	0.689
O=C1CC(NS(=O)(=O)c2cccs2)CN1c1ccccc1 (stereo not drawn)	i	-8.6	4.0	9.3	18.4	1.7	-0.9	0.3%	0.741
C[C@@H]1CCCCO[C@H](CN(C)C(=O)C2CCCCC2)[C@@H](C)CN([C@H](C)CO)C(=O)c2cc(NC(=O)CCC(F)(F)F)ccc2O1	i	-1.1	.	1.6	3.9	-0.2	.	.	.
O=C(COc1ccccc1)Nc1nnc(S(=O)(=O)N2CCCCC2)s1	i	-5.0	-0.6	6.0	-4.8	-1.3	-6.1	2.5%	0.655
CCOc1ccc(C2C(C(=O)c3ccco3)=C(O)C(=O)N2CCCn2ccnc2)cc1OC (stereo not drawn)	i	4.3	-8.2	7.8	20.3	-1.6	3.8	.	0.703
O=C(Nc1cccnc1)c1ccc(COc2cc(Cl)ccc2Cl)o1	.	.	.	.	.	.	-0.2	13.8%	0.696
COc1ccc(CC(=O)NCCN2CCOCC2)cc1	i	-24.0	-21.8	6.0	17.5	-0.6	-1.5	.	0.676
O=C(CSc1nnc(CNC(=O)c2c(F)cccc2F)o1)NCc1ccc(F)cc1	i	-1.1	-13.3	18.9	12.5	3.1	-2.7	-1.6%	0.631
CC(OC(=O)c1cc[n+]([O-])cc1)C(=O)Nc1ccc(Cl)cn1 (stereo not drawn)	.	.	-6.8	.	.	.	-0.6	?	0.692
C[C@@H]1O[C@@H](O[C@H]2[C@H](O)[C@@H](O)[C@H](Oc3c(-c4ccc(O)cc4)oc4cc(O)cc(O)c4c3=O)O[C@@H]2CO)[C@H](O)[C@H](O)[C@H]1O	i	-4.2	13.2	3.0	12.8	17.7	0.9	.	.
O=C(NCC1CCCO1)C1CCN(CC2CCCCC2)CC1 (stereo not drawn)	.	.	-25.2	.	.	.	-2.4	-4.1%	0.636
COc1cc(SC)ccc1C(=O)Nc1cccc(S(=O)(=O)NC2=NCCC2)c1	i	10.8	-0.6	-20.3	-25.7	-2.7	2.2	-11.7%	0.708
CC(C)(C)NC(=O)C1CC(=O)OC12CCOC(C)(C)C2 (stereo not drawn)	i	-4.0	-7.1	17.6	15.4	-3.7	2.8	20.6%	0.646
Cc1ccc(S(=O)(=O)N(C)C[C@@H]2OCCCC[C@@H](C)Oc3ccc(NC(=O)Nc4ccc5c(c4)OCO5)cc3C(=O)N([C@H](C)CO)C[C@H]2C)cc1	i	5.0	.	3.0	1.9	0.0	.	.	.
Cc1ccccc1NC(=O)c1cccc(N2C(=O)C3C4CCC(C4)C3C2=O)c1 (stereo not drawn)	.	.	-4.2	.	.	.	0.7	5.0%	0.704
O=C(Cn1cnc2c(cnn2-c2ccccc2)c1=O)N1CCCc2ccccc21	.	.	.	.	.	.	5.8	27.2%	0.715
CCC1=Nc2cc(C(=O)NCC3CCCO3)ccc2Sc2ccc(Br)cc21 (stereo not drawn)	i	10.1	1.9	-4.1	-9.7	-1.5	-2.9	-1.6%	.
C[C@H]1CN([C@@H](C)CO)C(=O)c2cccc(NC(=O)C3CC3)c2O[C@H]1CN(C)S(=O)(=O)c1cccs1	i	-0.3	.	1.5&7.0	14.1&6.0	1.1&4.4	2.0	4.3%	0.728
C/C(=N\NC(=O)c1ccccc1)c1ccccc1F	.	-3.6	-5.2	8.7	8.4	-0.7	-0.8	-4.2%	.
Cc1ccc(S(=O)(=O)N[C@H]2CC[C@H](CCn3cc(C4(O)CCCC4)nn3)O[C@H]2CO)cc1	i	-1.1	.	-6.3	-9.6	1.7	.	.	.
CCC(=O)N1[C@@H]2c3ccc(C4=CCCC4)c(=O)n3C[C@@H]2[C@@H](CO)[C@@H]1C(=O)NCc1ccc(F)cc1	i	1.9	.	2.0	4.1	-0.6	.	.	.
COc1cccc(NS(=O)(=O)c2ccc3[nH]cc(C(=O)NCCC(C)C)c(=O)c3c2)c1	.	.	-5.4	.	.	.	-1.8	8.4%	0.742
COc1ccc2c(c1OC)C(=O)OC2Nc1nc(-c2cc3ccccc3oc2=O)cs1 (stereo not drawn)	.	.	.	.	.	.	-1.9	-3.4%	0.658
N#Cc1nc(-c2cccc3ccccc23)oc1NCC1CCCO1 (stereo not drawn)	i	.	9.7	-19.1	-12.5	-3.7	-2.1	?	0.714
CCn1c(SCC(=O)NCCc2ccc(F)cc2)nnc1-c1cccs1	.	.	-4.7	.	.	.	2.5	-4.0%	0.722
COc1ccc(NC(=O)N[C@@H]2CC[C@@H](CC(=O)NC3CCC3)O[C@@H]2CO)cc1	i	-1.2	.	-3.0	-0.6	-2.6	.	.	.
CC(=O)Nc1nc2ccccc2n1CCN1CCOCC1	.	.	-9.8	.	.	.	-0.1	-6.6%	0.69
Cc1c(CCC(=O)O)c(=O)oc2cc(O)ccc12	.	.	47.5	.	.	.	2.6	19.7%	0.702
COc1ccc2c3c(n(C)c2c1)[C@H](CO)N(C(=O)c1cnccn1)CC31CCN(C(C)=O)CC1	i	0.3	.	0.4	17.9	-3.4	.	.	.
Cc1cccc2c1NC(=O)C2=Nc1ccc(Cl)cc1	i	-9.7	.	-19.4*	-6.5*	-0.2*	-1.5	.	0.669
Cc1cc(-c2ccc(S(=O)(=O)N3CCN(c4cccc(C(F)(F)F)c4)CC3)s2)on1	i	0.0	0.0	0.0	4.7	-2.4	2.1	.	0.698
Cc1cc(NS(=O)(=O)c2ccc(NC(=O)c3ccoc3C)cc2)nc(C)n1	.	.	.	.	.	.	-2.6	1.1%	0.741
Cc1ccc(Nc2nnc(C)c3ccccc23)c(C)c1	i	-0.2	5.7	14.6	4.6	7.9	3.1	.	0.671
c1cncc(C(c2nnnn2C2CCCC2)N2CCN(Cc3ccc4c(c3)OCO4)CC2)c1 (stereo not drawn)	.	.	1.6	.	.	.	-1.3	-4.5%	0.685
Cc1ccc(-c2c[n+]3c(n2-c2ccccc2)SCC3)cc1	i	3.3	-3.1	.	.	.	1.7	10.6%	.
Cc1ccc(S(=O)(=O)N(CC(O)CN2C(=O)NC(C)(C)C2=O)c2ccccc2)cc1 (stereo not drawn)	.	.	-4.0	.	.	.	-0.2	-0.1%	0.725
COc1cc(NC(=O)c2cccs2)c(OC)cc1NC(=O)CCC(=O)Nc1cccc2ncccc12	i	-1.0	-4.0	2.9	5.4	-4.3	2.2	.	0.676
C[C@@H]1CN([C@@H](C)CO)C(=O)c2cccc(NS(=O)(=O)c3ccc(Cl)cc3)c2O[C@@H]1CN(C)S(=O)(=O)c1ccc(Cl)cc1	i	0.3	.	-0.1	0.9	4.9	.	.	.
CCOc1ccccc1N1CCN(c2nc(N)c(C#N)c(CC#N)c2C#N)CC1	.	.	6.6	.	.	.	7.6	?	0.701
O=C(NNC(=O)c1ccc(O)c(Cl)c1)c1cccc(S(=O)(=O)N2CCOCC2)c1	i	6.2	3.4	-1.7	9.2	-1.8	-0.7	7.8%	0.658
CC1=[N+](C)N(c2ccccc2)C(=O)C1N=C/C=C/c1ccccc1 (stereo not drawn)	i	4.0	13.6	.	.	.	-2.1	3.7%	0.689
Nc1nnc(SCC(=O)NC2CCCCC2)s1	.	.	-9.7	.	.	.	-1.5	-4.9%	0.754
Cc1cccn2cc(-c3cccc(S(=O)(=O)N4CCCCC4)c3)nc12	i	-1.9	90.9*	-16.8	-30.4	2.2	2.5	.	0.663
O=C(NCc1ccccc1)c1ccc(Oc2ccc(C(=O)NCc3ccccc3)cc2)cc1	.	.	5.2	.	.	.	-0.7	1.2%	0.742
CC(C)NC(=O)Nc1ccc2c(c1)C(=O)N([C@@H](C)CO)C[C@@H](C)[C@H](CN(C)Cc1ccc(Cl)c(Cl)c1)OCCCC[C@H](C)O2	i	1.7	.	0.1	3.6	0.1	.	.	.
OC1CCC2CN3CCc4c([nH]c5ccccc45)C3CC2C1 (stereo not drawn)	i	2.7	.	.	.	.	-44.2	.	.
Cc1ccc[n+](/C(C(=S)NCc2ccco2)=C(/[O-])c2ccccc2Cl)c1	.	.	.	.	.	.	5.6	?	0.681
C/C(=N\NC(=O)c1ccc(Cn2cc([N+](=O)[O-])cn2)o1)c1cccc(NC(=O)C(C)C)c1	i	4.4	-1.8	4.2	5.8	2.8	7.7	5.7%	.
COc1ccc(NC(=O)N(C)C[C@H]2OCCCC[C@@H](C)Oc3ccc(NS(=O)(=O)c4cccs4)cc3C(=O)N([C@H](C)CO)C[C@H]2C)cc1	i	-8.5	.	-2.8	0.0	-0.4	.	.	.
C[C@H](CO)N1C[C@H](C)[C@H](CN(C)C(=O)Nc2ccccc2)Oc2c(NC(=O)Nc3ccc(F)cc3)cccc2C1=O	i	3.1	.	-4.2	-7.2	0.0	.	.	.
CC(C)c1ccc(NC(=O)COC(=O)/C=C/c2cccc([N+](=O)[O-])c2)cc1	i	3.1	55.2	.	.	.	-1.4	.	0.745
CN1C(=O)c2cc(NC(=O)Cc3cccs3)ccc2OC[C@@H]2O[C@H](CC(=O)NCCc3ccncc3)CC[C@@H]21	i	-1.7	.	0.2	-3.4	-3.3	.	.	.
O=c1cc(NCCO)c2ccccc2o1	.	.	3.4	.	.	.	0.3	20.5%	0.751
Cc1ccc(C(C(=O)NC2CCCCC2)N(Cc2ccccc2)C(=O)Cc2c[nH]c3ccccc23)o1 (stereo not drawn)	.	.	-0.6	.	.	.	-0.2	-9.5%	0.7
C[C@H](CO)N1C[C@H](C)[C@@H](CN(C)C(=O)Nc2ccccc2)Oc2c(NC(=O)CCCCCC(=O)Nc3ccccc3N)cccc2C1=O	i	1.9	.	0.9	8.8	-0.2	.	.	.
CCC(O)C(C)(C)C (stereo not drawn)	i	.	22.6	5.2	4.1	2.2	0.8	.	0.661

Screens: PubChem, several laboratories
